NPYLR7 agonist: activates Aedes aegypti NPYLR7 receptor; activation, % at 10 µM; 0.15% of 270,000 active; AID 1259423; HEK293T NPYLR7/Galpha15, GCaMP6s calcium fluorescence; in the data active means activation above about 40%;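 further: 0% = vehicle and 100% = reference agonist at the receptor; some compounds past the cut are filed as inactive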
NPYLR7 agonist max-min: also measured in NPYLR7 agonist; calls as there; activation, %; measured here: Max-Min RFU normalised activation; some inactives read as strong as hits;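 span of the calcium signal over five minutes; 0% = vehicle and 100% = native peptide agonist; compound fluorescence can raise it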
* = called active by the depositor; & = joins results of further samples.

1: O=C(CCC1CCCC1)N1CCN(C(c2ccccc2)c2ccc(F)cc2)CC1 (stereo unspecified)
2: Cc1ccc(C(C)N(C)C(=O)CSCC(N)=O)s1 (stereo unspecified)
3: CCc1ccc(Nc2ccc([N+](=O)[O-])c3nonc23)cc1
4: Cc1nnc(NCc2ccccc2S(=O)(=O)NC(C)(C)C)s1
5: Cc1ccccc1-c1nc2ccccn2c1NC(C)(C)CC(C)(C)C
6: C[n+]1cn(C2=C(NS(=O)(=O)c3ccc([N+](=O)[O-])cc3)C(=O)c3ccccc3C2=O)c2ccccc21
7: Cc1ccc(-c2c(NC(=O)C(C)C)n(-c3ccccc3)nc(C)c2=O)cc1
8: CC(C)(C)CC(=O)NNC(=O)c1ccc(=O)n(Cc2ccc(Cl)cc2)c1
Assay by compound,1,2,3,4,5,6,7,8
NPYLR7 agonist,5,4,0,10,10,-6,4,-12
NPYLR7 agonist max-min,4,1,1,-16,13,-3,0,-21

9: COc1ccc(Cn2cnc3c4cc(C)ccc4n(CC(=O)Nc4ccc5c(c4)OCO5)c3c2=O)cc1
10: O=C(Cn1nc(-c2ccco2)c2sc(N3CCCC3)nc2c1=O)N1CCN(c2ccccc2)CC1
11: O=C(O)CCN1C(=O)/C(=C/c2ccccc2O)SC1=S
12: CCn1ccc(C(=O)N=c2sc3c(OC)ccc(OC)c3n2CC(=O)OC)n1
13: COC(=O)c1ccc(COC(CN2CCN(C(=O)Nc3cccc(C(=O)OC)c3C)CC2)c2cccc(OC)c2)cc1 (stereo unspecified)
14: COCc1nc2ccc(C)cc2c2c1C(=O)N(CCc1nc3ccccc3[nH]1)C2=O
15: COc1cccc(-c2cnc(-c3cccc(CNC(=O)c4cccc(C#N)c4)c3)[nH]2)c1
16: O=C(c1coc(CN(Cc2ccc3c(c2)OCO3)Cc2ccccc2Cl)n1)N1CCCCC1
Assay by compound,9,10,11,12,13,14,15,16
NPYLR7 agonist,0,-4,2,0,2,-1,-5,19
NPYLR7 agonist max-min,-7,-7,-3,-2,-3,-5,-12,36

17: CC(=O)Nc1ccc(NC(=O)CSc2nc(C3CCCC3)nc3c2c(=O)n(C)c(=O)n3C)cc1
18: O=C(NCCCn1nnc2ccccc21)c1cn(-c2ccccc2)nn1
19: O=C(c1ccc(F)cc1F)N1CCC(N2CCC(C(=O)N3CCOCC3)CC2)CC1
20: NC(=O)c1ccc(=O)n(Cc2ccn(-c3ccccc3)n2)n1
21: CNC(=O)CSc1nnc(N2CCN(C(=O)c3cc(=O)c4ccccc4o3)CC2)s1
22: Cc1ncsc1CCC(=O)N(C)CCc1nc2ccc(F)cc2[nH]1
23: COc1ccc(C(=O)N2CCC(n3nccc3NC(=O)C3CC3)CC2)cc1F
24: CCOC(=O)c1cc(-c2cccc(NC(=O)C(C)Oc3ccccc3)c2)n(-c2cccc(F)c2)n1 (stereo unspecified)
Assay by compound,17,18,19,20,21,22,23,24
NPYLR7 agonist,-7,3,5,5,-15,-1,-5,5
NPYLR7 agonist max-min,-9,-6,8,0,-15,-5,-6,1

25: CCCN(CC#N)Cc1cc2c(cc1O)OCO2
26: O=C(NCC1CCCCC1O)c1c(O)cc(F)cc1F (stereo unspecified)
27: CCOc1ccc(-c2noc(CSc3nc(C)c(CCO)c(=O)[nH]3)n2)cc1
28: O=C(c1c[nH]c(=O)cn1)N1CCCC(N2CCN(c3ccc(F)cc3)CC2)C1 (stereo unspecified)
29: O=C(NCCCOCc1ccco1)c1cc(Cl)ccc1O
30: CCn1c(=NC(=O)c2ccc3ncsc3c2)sc2cc(Cl)ccc21
31: O=C1C(C(c2ccccc2)N2CCC(O)CC2)Sc2nc(-c3ccco3)nn21 (stereo unspecified)
32: COc1ccc2c(c1)sc(=NC(=O)CSCC(=O)Nc1nccs1)n2C
Assay by compound,25,26,27,28,29,30,31,32
NPYLR7 agonist,5,3,-7,-1,2,3,-2,26
NPYLR7 agonist max-min,3,0,-16,-3,1,3,-5,21

Compound profiles, as listed above.
CCOc1ccc(-c2noc(CSc3nc(C)c(CCO)c(=O)[nH]3)n2)cc1 as listed: NPYLR7 agonist = -7; NPYLR7 agonist max-min = -16
CCn1ccc(C(=O)N=c2sc3c(OC)ccc(OC)c3n2CC(=O)OC)n1 as listed: NPYLR7 agonist = 0; NPYLR7 agonist max-min = -2

Following part:
33: N[C@@H](Cc1c[nH]c2ccccc12)C(=O)NC[C@@H]1CCCN2CCCC[C@H]12
34: O=C1C2CC=CCC2C(=O)N1c1ccc(OCC(O)CN2C(=O)c3ccccc3S2(=O)=O)cc1 (stereo unspecified)
35: COC(=O)c1c(OCCCc2ccccc2)cc(=O)n2c1CCN(C(=O)c1cc(C)oc1C)CC2
36: CSc1cnc2c(=O)n(C)c(=O)[nH]c2n1
37: CCc1nc(SCC(=O)NCCc2c[nH]c3ccccc23)n[nH]1
38: Cc1sc2nc(C(C)OC(=O)CN3C(=O)C4CCCCC4C3=O)[nH]c(=O)c2c1C (stereo unspecified)
39: CS(=O)(=O)CCn1ccc(NC(=O)c2ccc(F)c(F)c2)n1
40: COCCCN(CC(=O)N(Cc1cccn1Cc1ccccc1)C1CCCCC1)C(=O)COc1ccccc1
Assay by compound,33,34,35,36,37,38,39,40
NPYLR7 agonist,-2,-7,3,14,12,-1,7,-6
NPYLR7 agonist max-min,-6,-6,1,5,-3,-1,2,-4

41: O=C(CCc1ccccc1)NNC(=O)c1ccc(=O)n(Cc2ccc(Cl)cc2)c1
42: COc1ccc(-c2nc3cc(C)ccn3c2NC(C)(C)CC(C)(C)C)cc1OC
43: Brc1ccc(-c2noc(-c3ccccc3)n2)o1
44: COc1ccc(-c2nc(N(CCCN3CCOCC3)CCC(=O)N3CCCC3)c3ccccc3n2)cc1
45: CCS(=O)(=O)N(C)CC(=O)NC(c1ccccc1C)C1CC1 (stereo unspecified)
46: N#Cc1ccc(C(=O)Nc2cc(-c3cccc(F)c3F)[nH]n2)nc1
47: Cc1nn(C)c(C)c1C=C1N=C(c2cccc(F)c2)OC1=O
48: CCOC(=O)[C@H]1C[C@]2(CCCCN(CCO)C2=O)N(C(=O)c2ccco2)[C@H]1c1ccccc1
Assay by compound,41,42,43,44,45,46,47,48
NPYLR7 agonist,-10,3,0,22,4,-11,14,1
NPYLR7 agonist max-min,-15,10,-1,18,2,-16,5,7

Records 1–2, reprinted for reference:
1: O=C(CCC1CCCC1)N1CCN(C(c2ccccc2)c2ccc(F)cc2)CC1 (stereo unspecified)
2: Cc1ccc(C(C)N(C)C(=O)CSCC(N)=O)s1 (stereo unspecified)
Assay by compound,1,2
NPYLR7 agonist,5,4
NPYLR7 agonist max-min,4,1

The listing continues:
49: CCS(=O)(=O)Oc1cc(CN(CC(C)C)S(=O)(=O)c2ccc(OC)cc2)ccc1OC
50: CC1=C(C(=O)Nc2ccc(Cl)cc2)C(c2cnn(Cc3ccccc3)c2)NC(=S)N1 (stereo unspecified)
51: COc1ccc(CC(=O)N2CCCN(C(=O)C(C)N3CCc4sccc4C3c3ccccc3C)CC2)cc1 (stereo unspecified)
52: Cc1n[nH]c(C)c1CCCN(C)C(=O)c1coc2c1C(=O)CCC2
53: CC(=O)Nc1cccc(C(=O)NCCOc2cccc3c2OC(C)(C)C3)c1
54: CC(NCC(O)COc1ccc(C#N)cc1)C1CC2CCC1C2 (stereo unspecified)
55: COc1ccc(OCC(=O)N2CCOC(COCc3cccc(C(F)(F)F)c3)C2)cc1 (stereo unspecified)
56: CN(C)C(=O)Nc1c[nH]c2ccccc12
Assay by compound,49,50,51,52,53,54,55,56
NPYLR7 agonist,6,3,-8,1,6,0,-7,3
NPYLR7 agonist max-min,6,7,-5,-1,5,-4,-4,-4

57: Nc1nc(NCc2ccccc2)sc1C(=O)C12CC3CC(CC(C3)C1)C2
58: CCN(CC)c1c([N+](=O)[O-])c(=O)oc2ccccc12
59: Cc1nnc(SCCCCC(=O)N2CCN(c3cccc(C(F)(F)F)c3)CC2)n1-c1ccccc1
60: Cc1ccc2nc(CSc3nc(C)nc4scc(-c5cccs5)c34)cc(=O)n2c1
61: CCOC(=O)C(C#N)C1(c2ccc(F)cc2)CCOC(C)(C)C1 (stereo unspecified)
62: CCc1ccc(S(=O)(=O)Nc2cccc(-c3ccc(N4CCOCC4)nn3)c2)s1
63: O=C(NC1CCS(=O)(=O)C1)c1cn(-c2ccc(Cl)cc2)nn1 (stereo unspecified)
64: CN(CCc1noc(C2CC2)n1)C(=O)c1cccc2ccnn12
Assay by compound,57,58,59,60,61,62,63,64
NPYLR7 agonist,8,-4,-1,4,5,1,3,1
NPYLR7 agonist max-min,9,-4,4,9,4,1,2,2

65: O=S(=O)(Oc1ccc(CNC2CC2)cc1)c1ccc(F)cc1
66: CO[C@H]1CN(C(C)C)C[C@@H]1Nc1nc(-c2cccnc2)nc2c1cnn2C
67: CC1CC(C)CN(Cc2nc3c(c(=O)n(C)c(=O)n3C)n2Cc2ccc(Cl)cc2)C1 (stereo unspecified)
68: COc1ccc(-c2ccc(OCCNC(=O)C(F)(F)F)nn2)cc1
69: CCCCC/C=C\C=C\C(=O)OC[C@H]1O[C@@H](O[C@H]2[C@H](OC(=O)/C=C/C=C/CC(O)/C=C/C=C/CCCCC)[C@@H](O)[C@@]3(OCc4cc(O)cc(O)c43)O[C@@H]2CO)[C@H](O)[C@@H](O)[C@H]1O (stereo partly specified)
70: Cc1nc2ccc(Cl)cn2c(=O)c1NC(=O)CCCc1ccccc1
71: Cc1cccc(Oc2nc(C)nc(N3CCC(N(C)C)CC3)c2N)c1
72: Cc1cc(OCCn2c(=O)c(C#N)cn(C3CC3)c2=O)ccc1C(C)C
Assay by compound,65,66,67,68,69,70,71,72
NPYLR7 agonist,32,1,12,3,-5,6,15,3
NPYLR7 agonist max-min,30,-2,7,2,-14,4,11,3

73: CCc1ccc(N2CCCn3c2nc2c3c(=O)n(CCCO)c(=O)n2C)cc1
74: CSc1cccc(NC(=S)NCC2CCCO2)c1 (stereo unspecified)
75: COc1ccc2cc(-c3[nH]ncc3CN3CCC(N4CCSCC4)CC3)ccc2c1
76: O=C(Nc1nnc(-c2ccccc2)o1)Nc1cccs1
77: CCOc1ccc(/C=C2/SC(=Nc3ccccc3)NC2=O)cc1OC
78: Cc1cc(C)c[n+](C2=C(c3c(C)[nH]n(-c4ccccc4)c3=O)C(=O)N(c3ccc4c(c3)OCO4)C2=O)c1
79: COc1ccc(CN2CCCn3cccc3C2c2cc(C)ccc2C)c(OC)c1 (stereo unspecified)
80: Cc1sc2ncnc(N3CCOCC3)c2c1C
Assay by compound,73,74,75,76,77,78,79,80
NPYLR7 agonist,4,-5,0,-2,-5,-5,-8,2
NPYLR7 agonist max-min,2,-11,-2,-1,-9,3,0,1

Reformatted: results already given
No.	structure	NPYLR7 agonist	NPYLR7 agonist max-min
74	CSc1cccc(NC(=S)NCC2CCCO2)c1 (stereo unspecified)	-5	-11
75	COc1ccc2cc(-c3[nH]ncc3CN3CCC(N4CCSCC4)CC3)ccc2c1	0	-2
76	O=C(Nc1nnc(-c2ccccc2)o1)Nc1cccs1	-2	-1
77	CCOc1ccc(/C=C2/SC(=Nc3ccccc3)NC2=O)cc1OC	-5	-9
78	Cc1cc(C)c[n+](C2=C(c3c(C)[nH]n(-c4ccccc4)c3=O)C(=O)N(c3ccc4c(c3)OCO4)C2=O)c1	-5	3
79	COc1ccc(CN2CCCn3cccc3C2c2cc(C)ccc2C)c(OC)c1 (stereo unspecified)	-8	0
80	Cc1sc2ncnc(N3CCOCC3)c2c1C	2	1

(further entries)
81: Cc1scc(C(=O)N2CCc3c(nc[nH]c3=O)C2)c1-c1ccccc1
82: CC(Oc1ccccc1C(N)=O)C(=O)Nc1ccc(Br)cc1F (stereo unspecified)
83: O=C(NCc1csc2ccc(Cl)cc12)c1cn(CC2CCCNC2)nn1 (stereo unspecified)
84: COc1cc(-c2onc(C)c2C(=O)NCC2COC(C)(C)O2)cc(OC)c1OC (stereo unspecified)
85: COc1ccc(F)c(CN2CCCC(O)(CN(C)Cc3nonc3C)C2=O)c1 (stereo unspecified)
86: Cn1cccc1C(=O)N1CCN(Cc2cc(=O)c(OCc3ccc(C(F)(F)F)cc3)co2)CC1
87: O=S(=O)(c1ccc(SC2Cc3ccccc3C2O)nc1)N1CCOCC1 (stereo unspecified)
88: CN1C(=C2C=NN(c3ccccc3)P2(=S)OCC2CCCO2)C(C)(C)c2ccccc21 (stereo unspecified)
89: CCOC(=O)c1cc(-c2ccc(F)cc2)n(C2CCN(C(=O)C(c3ccccc3)c3ccccc3)CC2)n1
90: O=C1NC(=O)C(c2ccccc2)(c2ccccc2)N1
91: CCOc1ccc(-c2cc(=O)n(CC(=O)NC(c3ccccc3)c3ccccc3)cn2)cc1
Assay by compound,81,82,83,84,85,86,87,88,89,90,91
NPYLR7 agonist,20,1,2,-1,26,2,6&2,10,2,0&7&-1&-9&14&-1&-11,15
NPYLR7 agonist max-min,10,-1,17,10,13,-8,6&0,6,2,-6&9&-8&-15&8&-32&-6,5

Compound activity (PubChem BioAssay)

An excerpt (hit frequency here may not be typical).
